CtBP-E1A inh = CtBP/E1A binding inhibition; AlphaScreen GST-E1A/His-CtBP binding, 1536-well; hits give low values; control for the full effect not named in the record; activity change, % (concentration not given with the values); 340,000 compounds, 0.49% hits; AID 651724; in the data active means activity change below about -65%; inconclusive means about -30% to -65%; inactive means above about -30%; also: % is scaled to controls: 0 for no effect and ±100 for the full control effect
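In 5 uL wells, 23 nL compound meets equimolar GST-E1A and His-CtBP (5X stock 125 nM each) for 2 h, 37 °C. Beads (5X, 50 ug/mL) then 1 h, 37 °C, dark.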
Six1-Eya2 inh = blocks human Six1 binding to Eya2 | Q15475+O00167 | AlphaScreen GST-Six1/His-Eya2 binding, biochemical; hits give low values; control for the full effect not named in the record | activity change, % (concentration not given with the values) | 360,000 compounds, 0.56% hits | AID 651725; in the data active = activity change below about -65%; inconclusive = about -30% to -65%; inactive = above about -30%; also: % is scaled to controls: 0 for no effect and ±100 for the full control effect
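AlphaScreen with GST-Six1 and His-Eya2 (5X mix: 250 nM and 500 nM), glutathione donor and nickel acceptor beads; buffer 50 mM Tris pH 8.0, 300 mM NaCl, 1 mM TCEP; 1 h at 37 C in the dark.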
gsp agonist = agonists of gsp mutant (McCune-Albright syndrome); 340,000 compounds, 0.13% hits; AID 624287; gsp mutant cells, cAMP HTRF, 30 min; control for the full effect not named in the record; Potency, µM (titrated, usually from 76.9 µM), without a hit: top-dose activation (cAMP increase), most hits filed as activators; active = well fitted activation curve with a large enough effect; inconclusive = small, poorly fitted or top-dose-only effect, or another doubt; inactive = no such curve, though single readings can be large or run the other way; cell line not stated here;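 also: phosphodiesterase inhibitor Ro 20-1724 added with compounds to block cAMP breakdown; potency is read from the fitted curve at half-maximal effect; nearly all actives have a fitted effect of over 60% in size; about a fifth of the inactives were tested at one dose only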
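Cells stably selected in G418 were plated at 2000/well, grown 16-24 hr, then given compounds in DMSO with the PDE inhibitor […] (300 uM solution added) for 30 min at 37C; cAMP was read by HTRF.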
D2 potentiator = positive allosteric modulators of human D2 dopamine receptor; DiscoveRx D2 beta-arrestin cells, luminescence, 90 min; 100% = 57 uM dopamine signal; potentiation, % (no concentration beside the values); 360,000 compounds, 0.23% hits; P14416; active = potentiation of 50% or more; inconclusive = 30% to 50%; inactive = 30% or less;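 also: compound concentration not given in the record; tested on top of an EC20 dose of dopamine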
Target sequence (P14416 whole entry, looked up): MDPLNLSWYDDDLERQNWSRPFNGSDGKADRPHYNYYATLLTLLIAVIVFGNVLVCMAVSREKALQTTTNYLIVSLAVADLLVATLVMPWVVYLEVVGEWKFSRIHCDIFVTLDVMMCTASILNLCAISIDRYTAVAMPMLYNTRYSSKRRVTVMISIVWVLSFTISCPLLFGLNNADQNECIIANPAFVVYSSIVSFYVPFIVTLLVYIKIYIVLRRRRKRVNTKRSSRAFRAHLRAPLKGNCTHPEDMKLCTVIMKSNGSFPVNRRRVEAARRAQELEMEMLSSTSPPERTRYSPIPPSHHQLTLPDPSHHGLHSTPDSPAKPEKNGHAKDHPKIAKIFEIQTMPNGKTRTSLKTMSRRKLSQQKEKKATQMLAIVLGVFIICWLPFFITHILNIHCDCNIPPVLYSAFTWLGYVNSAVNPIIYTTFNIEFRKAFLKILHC
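PathHunter beta-arrestin assay in DiscoveRx D2 cells. Compounds were added with an EC20 of dopamine (50 nM final) for 90 min at 37 deg C. Luminescence was read 1 h after detection reagent, with 57 uM dopamine as the EC100 control.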
gsp antag = antagonists of gsp mutant (McCune-Albright syndrome); 340,000 compounds, 0.4% hits; AID 624288; Potency, µM (doses to about 76.9 µM), for the others: top-dose activity change, negative = inhibition, actives largely listed as inhibitors; gsp-mutant cells, cAMP HTRF, 30 min; control for the full effect not named in the record; active = falling curve of any shape with a large fitted effect; inconclusive = falling curve, mostly with a smaller effect; inactive = flat or rising curve; cell line not stated here;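 also: intracellular cAMP measured with PDE inhibitor Ro 20-1724 present during compound exposure; potency is read from the fitted curve at half-maximal effect; % is scaled to controls: 0 for no effect and ±100 for the full control effect; nearly all actives have a fitted effect of over 65% in size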
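Cells in G418 medium, seeded 16-24 h, 37C; buffer exchange to DPBS + 1 mM CaCl2, 0.5 mM MgCl2, 0.05% BSA; cpds in DMSO + […] (300 uM stock), 30 min 37C; HTRF cAMP detection.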
D2 agonist = activates the human D2 dopamine receptor | DiscoveRx PathHunter D2 beta-arrestin, luminescence, 90 min; 100% = 57 uM dopamine signal | AID 624465 | 360,000 compounds, 0.084% hits | activation, % (concentration not given with the values); in the data active = activation above about 40%; inconclusive = about 15% to 40%; inactive = below about 15%; also: the text of the record calls up to 30% inactive
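Agonist mode: compounds alone added to overnight-plated D2 PathHunter cells for 90 min at 37 C, with 57 uM final dopamine (EC100) defining full response. Beta-arrestin recruitment detected by chemiluminescent reagent, read after 1 h at ambient temperature.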
* hit, by the source's call; ? = inconclusive; . = not tested or not shown; [ ] = dose if it differs, or a comment.

[1] O=C(OCN1C(=O)c2ccccc2C1=O)c1ccccc1
[2] Cc1cc(N2CCN(Cc3nc(-c4ccc(Cl)cc4)oc3C)CC2)cc(C)n1
[3] COc1ccc(NC(=O)c2ccc3c(c2)OCO3)cc1[N+](=O)[O-]
[4] CN(C)Cc1c(C(=O)N/N=C/c2cccc(OCc3ccc(F)cc3)c2)nnn1-c1nonc1N
[5] O=C(NCc1ccccc1C(F)(F)F)c1cccc2c1C(=O)c1ccc(N3CCCCC3)cc1S2(=O)=O
[6] CC(=O)NNc1nc(-c2ccccc2)c2cc(Cl)ccc2n1
[7] N#Cc1ccccc1COC(=O)c1cc(S(=O)(=O)N2CCOCC2)ccc1F
[8] CC1=C(C(=O)N(C(C)C)C(C)C)CC(CC(=O)NC2CCCC2)C(=O)N1CCCN1CCCC1=O (stereo not given)

Compound,1,2,3,4,5,6,7,8
D2 potentiator,-4,-3,-4,-1,-11,-8,-3,-5
gsp agonist,1%,-7%[15.4 µM],1%[15.4 µM],14%[15.4 µM],?,29%,16%,.
gsp antag,5%,2%,0%,7%,-4%,.,.,.
Six1-Eya2 inh,4,-1,-2,-1,14,-1,7,5
D2 agonist,-2.0,6.8,-4.6,-2.0,-2.9,-0.8,1.0,-3.6
CtBP-E1A inh,1,-10,-2,8,4,-2,0,7

[9] CC1CN(C(=O)COC(=O)[C@@H](NC(=O)c2ccccc2Cl)C(C)C)CC(C)O1 (stereo not given in full)
[10] COc1ccccc1NCCC(=O)OCC(=O)Nc1cccc(S(=O)(=O)N(C)C)c1
[11] COC(=O)CSc1nnc(-c2ccc(S(=O)(=O)N3CCCC3)cc2)o1
[12] COc1ccccc1N(CC(O)COc1ccccc1C)S(=O)(=O)c1ccccc1 (stereo not given)
[13] COc1cc(/C=C2/C(=O)N=C(N)N2C)cc(OC)c1OC
[14] Cc1noc(C)c1S(=O)(=O)Nc1ccc2c(c1)CC(=O)N([C@H](C)CO)C[C@H](C)[C@H](CN(C)S(=O)(=O)c1ccc(F)cc1)O2
[15] O=C(O)c1cc(NN=Nc2cccc([N+](=O)[O-])c2)cc([N+](=O)[O-])c1
[16] O=C(NCc1ccco1)c1cc2ccccc2o1

Compound,9,10,11,12,13,14,15,16
D2 potentiator,-2,-3,7,-7,-6,-1,5,-7
gsp agonist,-3%,-42%[inhibitor],15%[15.4 µM],7%[15.4 µM],17%,-4%,9%,5%
gsp antag,11%,-6%,?,0%,-12%,-12%,-9%,8%
Six1-Eya2 inh,1,-12,2,6,-4,-3,-5,4
D2 agonist,-0.6,-3.3,2.5,-4.3,-0.5,-1.1,-6.9,-1.6
CtBP-E1A inh,1,-17,6,3,2,0,-3,-2

[17] CCn1ccnc1CN(C)Cc1cn(-c2ccc(C)cc2)nc1-c1cccc(C)c1
[18] COc1cccc(NC(=O)COC(=O)c2c(C)nn(-c3ccccc3)c2C)c1
[19] C=CCn1c(SCC(=O)c2c(N)n(C3CC3)c(=O)[nH]c2=O)nnc1-c1ccoc1C
[20] CCn1c(Cn2nnc(-c3ccccc3)n2)nnc1SCc1ccc(Cl)c(Cl)c1
[21] CN(CCCNC(=O)c1ccc(CS(=O)c2ccc(Br)cc2)o1)Cc1ccccc1 (stereo not given)
[22] CCCNC(=O)COC(=O)c1cc(-c2ccc(OC)cc2)nc2ccccc12
[23] Cc1nnc(NC(=O)c2cccc(S(=O)(=O)N(C)c3cccc(Cl)c3)c2)s1
[24] N=c1c(C(=O)NCC2CCCO2)cc2c(=O)n3ccccc3nc2n1C1CCCC1 (stereo not given)

Compound,17,18,19,20,21,22,23,24
D2 potentiator,-17,4,-7,14,-25,-4,4,-11
gsp agonist,-9%[15.4 µM],-47%[inhibitor],27%,11%,-12%,32%[15.4 µM],?,25%[15.4 µM]
gsp antag,-16%,-6%,14%,-32%,15%,-50%,-24%,6%
Six1-Eya2 inh,-19,-2,-6,?,1,5,3,-4
D2 agonist,-5.8,4.5,-1.3,-1.4,-7.5,0.7,0.6,1.0
CtBP-E1A inh,-19,-22,-1,-2,2,3,-1,12

Rewritten with values under each structure: four of the compounds above
Order of values: D2 potentiator, gsp agonist, gsp antag, Six1-Eya2 inh, D2 agonist, CtBP-E1A inh
23) Cc1nnc(NC(=O)c2cccc(S(=O)(=O)N(C)c3cccc(Cl)c3)c2)s1
    4, ?, -24%, 3, 0.6, -1
24) N=c1c(C(=O)NCC2CCCO2)cc2c(=O)n3ccccc3nc2n1C1CCCC1 (stereo not given)
    -11, 25%[15.4 µM], 6%, -4, 1.0, 12
18) COc1cccc(NC(=O)COC(=O)c2c(C)nn(-c3ccccc3)c2C)c1
    4, -47%[inhibitor], -6%, -2, 4.5, -22
22) CCCNC(=O)COC(=O)c1cc(-c2ccc(OC)cc2)nc2ccccc12
    -4, 32%[15.4 µM], -50%, 5, 0.7, 3

(next part)
[25] Cc1sc2ncn(CC(=O)NCCCC(=O)N3CCN(c4ncccn4)CC3)c(=O)c2c1C
[26] C=CCn1c(SCC(=O)N(CCOC)c2c(N)n(CC(C)C)c(=O)[nH]c2=O)nc2ccccc21
[27] O=C(COc1ccccc1[N+](=O)[O-])N1CCCc2ccccc21
[28] Cc1ccc(S(=O)(=O)N2C[C@@H](C)[C@]3(C2)[C@H](O)[C@H](OC(=O)Nc2cccs2)C[C@H]2C(=O)N(c4ccccc4)C(=O)[C@H]23)cc1
[29] COc1cc(OC)c(OC)cc1CNCCSc1nnnn1C
[30] CC(OC(=O)c1ccc2c(=O)n3c(nc2c1)CCC3)C(N)=O (stereo not given)
[31] Cc1ccccc1CNC(=O)Nc1ccc(Cl)cc1
[32] Cc1ccc(S(=O)(=O)CCc2ccncc2)cc1

Compound,25,26,27,28,29,30,31,32
D2 potentiator,-5,-5,-4,5,-6,-2,-3,-5
gsp agonist,10%,0%[15.4 µM],1%,?,-10%[15.4 µM],20%[15.4 µM],-17%,?
gsp antag,-4%,15%,0%,.,18%,9%,-6%,7%
Six1-Eya2 inh,-2,-12,-5,-6,3,1,12,10
D2 agonist,-0.3,-1.9,-5.8,-7.6,2.3,-1.9,2.0,-1.9
CtBP-E1A inh,-1,-4,3,-3,15,17,-15,7

[33] CCOC(=O)c1c(C)[nH]c(C(=O)CSc2nnc(CC(C)c3ccccc3)o2)c1C (stereo not given)
[34] CCOC(=O)C1CCCN(C(=O)c2ccc(Cl)c(S(=O)(=O)N3CCc4ccccc43)c2)C1 (stereo not given)
[35] CC(=O)c1ccc(NS(=O)(=O)c2ccc(CC(C)C)cc2)cc1
[36] CC(C)Oc1ccc(/C=C(\NC(=O)/C=C/c2ccco2)C(=O)NCCc2nc3ccccc3[nH]2)cc1
[37] COc1cccc(/C=c2\s/c(=C/C(=O)c3ccc(C)cc3)[nH]c2=O)c1OC
[38] COc1ccc(N(C(=O)c2ccco2)C(C(=O)NC2CCCC2)c2ccc(N(C)C)cc2)cc1OC (stereo not given)
[39] C/C(=N\Nc1nncc2ccccc12)c1ccc(Cl)c([N+](=O)[O-])c1
[40] O=C(O)c1ccc(/C=C2\SC(=S)N(NC(=O)c3ccc(Br)cc3)C2=O)cc1

Compound,33,34,35,36,37,38,39,40
D2 potentiator,-13,0,-8,-6,-26,-16,-4,-37
gsp agonist,-3%,-23%,0%,6%,-3%,13%,?,24%
gsp antag,-5%,-16%,-7%,-10%,-7%,-6%,7%,-8%
Six1-Eya2 inh,-2,-1,2,-24,-5,-3,-8,-24
D2 agonist,-1.4,6.9,-1.6,-2.9,-8.0,-2.6,0.2,-6.6
CtBP-E1A inh,9,-14,6,-8,22,-1,1,0

[41] O=C(c1ccco1)c1cn[nH]c1-c1ccc(Cl)cc1O
[42] CN(C)CCCn1c(SCCN2C(=O)c3ccccc3C2=O)nc2ccccc2c1=O
[43] COCCn1c(C)cc(C(=O)COC(=O)c2cc3c(s2)CCC3)c1C
[44] COc1ccc(Cl)cc1NC(=O)CC1CCCC1
[45] CCC1(C)Cc2c(sc3nnn(CC(=O)Nc4ccccc4C)c(=O)c23)CO1 (stereo not given)
[46] Oc1ccccc1CN(Cc1ccco1)CC(O)COCc1ccc(Cl)cc1 (stereo not given)
[47] Cc1ccc2c(c1)N(CC(=O)N1CCC(C)CC1)C(=O)c1cccnc1O2
[48] Fc1ccc(N/N=C/c2ccc(N3CCOCC3)cc2)c(F)c1

Compound,41,42,43,44,45,46,47,48
D2 potentiator,4,-7,-9,-6,-11,-32,-3,6
gsp agonist,-19%,24%[15.4 µM],1%,-10%[15.4 µM],-7%,0%,2%,-6%[15.4 µM]
gsp antag,-15%,-11%,-19%,-2%,-2%,-11%,-1%,4%
Six1-Eya2 inh,6,2,-23,24,1,7,-3,-6
D2 agonist,-3.4,-4.7,-2.6,-6.1,-1.9,-3.3,-2.3,8.4
CtBP-E1A inh,-5,-5,-16,13,19,8,4,3

[49] COc1cccc(NC(=O)CN(C)C(=O)c2ccccc2OCC(=O)Nc2cccc(C(F)(F)F)c2)c1
[50] CCN(CC)C(=O)[C@H]1CC(CC(=O)NCCN2CCOCC2)C(=O)N2CCc3c([nH]c4ccccc34)[C@]12C (stereo not given in full)
[51] Cc1cccc(NS(=O)(=O)c2ccc(Br)s2)n1
[52] O=C(CN1C(=O)S/C(=C/c2ccc(N3CCOCC3)cc2)C1=O)N1CCOCC1
[53] Nc1ccc(-c2nc3c(Cl)cc(N)cc3[nH]2)cc1
[54] c1ccc(-n2nnnc2-n2nnc3ccccc32)cc1
[55] CN(Cc1ccccc1)C(=O)c1cccc(NC(=O)Cc2ccc(NC(=O)C3CCCN(C(=O)C4CCCC4)C3)cc2)c1 (stereo not given)
[56] CN1C(=O)CSC1=S

Compound,49,50,51,52,53,54,55,56
D2 potentiator,-13,.,28,-3,-12,2,-2,10
gsp agonist,-4%,.,-35%,19%,?,9%,.,.
gsp antag,-27%,8%,-5%,-4%,?,10%,6%,6%
Six1-Eya2 inh,3,4,6,3,-27,14,1,-7
D2 agonist,1.2,1.1,-2.2,-2.9,8.4,-0.3,2.0,-5.2
CtBP-E1A inh,-2,8,8,-4,?,1,0,7

[57] O=C(Nc1ccc(F)cc1)c1sc(Cl)nc1-c1ccccc1
[58] Cc1c(C(=O)N2CCC(C(N)=O)CC2)oc2ccc(Br)cc12
[59] Cc1ccc(-n2c(C)c(C)c3c(N)ncnc32)cc1
[60] CCCc1cc(C(=O)NCc2ccc(OC)cc2)no1
[61] O=C(OCc1nnc(-c2ccccc2)o1)c1ccccc1

Compound,57,58,59,60,61
D2 potentiator,-8,-4,1,-7,-2
gsp agonist,-5%[15.4 µM],14%[15.4 µM],5%,-84%,5%[15.4 µM]
gsp antag,-4%,11%,7%,5%,0%
Six1-Eya2 inh,1,3,8,9,3
D2 agonist,-0.2,-2.2,-3.0,-1.7,-1.2
CtBP-E1A inh,20,0,3,2,12

Screening data from PubChem BioAssay.
